GIRK2 act = GIRK2 channel activation | P48051 | HEK293-GIRK2 thallium flux, Thallos fluorescence | calls only for hits at 25 µM | actives 0.05% (n = 63,000);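 active means among the strongest 0.2% of first-round signals and kept after retests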;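 further: first round at about 10 µM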
Target sequence (P48051 whole entry, looked up): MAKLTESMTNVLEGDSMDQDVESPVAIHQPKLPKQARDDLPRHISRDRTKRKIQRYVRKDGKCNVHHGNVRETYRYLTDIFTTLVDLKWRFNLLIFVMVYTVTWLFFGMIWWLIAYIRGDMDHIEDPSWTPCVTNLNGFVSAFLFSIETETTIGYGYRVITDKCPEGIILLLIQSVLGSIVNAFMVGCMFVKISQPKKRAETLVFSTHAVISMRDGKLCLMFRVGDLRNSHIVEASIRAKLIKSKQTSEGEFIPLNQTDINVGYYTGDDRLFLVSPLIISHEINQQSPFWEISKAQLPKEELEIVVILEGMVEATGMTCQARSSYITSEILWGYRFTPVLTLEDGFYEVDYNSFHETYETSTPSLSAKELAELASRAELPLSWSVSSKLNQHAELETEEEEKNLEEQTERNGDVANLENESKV
Calls only; i = inactive. A portion of the library; count on the stated rates, not on these rows.

SMILES | GIRK2 act
O=S(=O)(Cc1cc(F)cc(F)c1)NCC(c1cccs1)N1CCOCC1 (centres undefined) | i
COc1ccc(C=O)cc1CSc1nc2c(sc3ncccc32)c(=O)n1Cc1ccccc1 | i
CCCn1c(=O)c2c(nc3n2CC(C(C)(C)C)=NN3CC(=O)OC)n(C)c1=O | i
Cc1ccc(-c2ccc(=O)n(C(C)C(=O)Nc3cccc4nsnc34)n2)cc1 (centres undefined) | i
CC12CCC(C(=O)NCc3ccc(F)cc3)(CC1=O)C2(C)C (centres undefined) | i
Cc1ccccc1CNC1CCN(c2ccc(C(=O)Nc3ccccc3)cn2)C1 (centres undefined) | i
CC(C)(C)OC(=O)N1CCN(c2ncc(C(=O)NCc3ccccc3)c(N)n2)CC1 | i
CCOc1ccc(-c2nc(Cn3nnc(C(=O)Nc4ccc(OC)cc4)c3C)c(C)o2)cc1OC | i
CCOc1ccc(NC(=O)Nc2cc(N3CCCCC3)ncn2)cc1 | i
COc1ccc(-c2noc(-c3sccc3S(=O)(=O)N(C)c3cccc(Cl)c3)n2)cc1OC | i
Cc1cccc(C)c1N1CCN(CC(O)COc2ccc3c4c(c(=O)oc3c2)CCC4)CC1 (centres undefined) | i
Cc1nc(C)c(-c2ccc(=O)n(CCNC(=O)CSc3nc4ccccc4o3)n2)s1 | i
COc1ccc(-c2c(C)nc(N)nc2-c2ccc(OCc3ccccc3)cc2O)cc1 | i
COc1ccc(OC)c(NC(=O)Cn2cc(C(=O)c3ccc(Cl)cc3)c(=O)c3cc(F)ccc32)c1 | i
O=C(NCC1CCN(C(=O)c2cccnc2)CC1)c1ccccc1Br | i
C=CC(C)(C)OCC(O)CN1CCC(C)CC1 (centres undefined) | i
CCOc1ccccc1NC(=O)c1nc(SC)ncc1Cl | i
Cc1nccn1CCNC(=O)C(=O)Nc1cccc(N2CCCCC2=O)c1 | i
COc1ccc(Cc2nnc(C3CCN(C(=O)c4ccc5c(c4)OCO5)CC3)s2)cc1 | i
CCCn1c(C(=O)N2CCc3ccccc32)cc2c(=O)n(C)c(=O)n(C)c21 | i
Cc1c(Cl)cccc1NC(=O)CCc1csc(NC(=O)c2ccc[nH]c2=O)n1 | i
COC(=O)N1CCc2ccc(F)cc2C1C(=O)Nc1cc2ccccc2oc1=O (centres undefined) | i
COCCn1c(=O)c2c(nc3n2CCCN3Cc2ccccc2)n(C)c1=O | i
Cc1cc(-c2ccccc2)nc(SCC(=O)c2ccc3c(c2)OCO3)n1 | i
O=C(NCc1cccs1)N1CCN(S(=O)(=O)C2CC2)CC1 | i

Next section.
SMILES | GIRK2 act
CCc1ccc(NC(=O)c2cn(Cc3ccc(NC(=O)Cc4ccc(OC)c(OC)c4)cc3)cn2)cc1 | i
O=C(CCCSc1ccc(NC(=O)C2CC2)nn1)NCCN1CCOCC1 | i
CC(=O)Nc1cccc(NC(=O)c2cnc3c(c(C)nn3-c3ccccc3)c2Cl)c1 | i
Cc1nn(C)cc1S(=O)(=O)Nc1nc2ccc(S(C)(=O)=O)cc2s1 | i
Cc1nc(SCC(=O)Nc2ccc(O)cc2)c2oc3ccccc3c2n1 | i
Cc1cc(NC(=O)c2ccc3c(c2)OCO3)n(-c2nc3c(F)cccc3s2)n1 | i
Cn1c(=O)n(CC(N)=O)c(=O)c2c1nc1n2CCCN1Cc1ccco1 | i
CC(O)(CNC(=O)C(=O)NCc1cccs1)c1ccc2c(c1)OCO2 (centres undefined) | i
CN(c1ccc(F)cc1)S(=O)(=O)c1ccsc1C(=O)Nc1ccc2c(c1)OCCO2 | i
COc1ccc(Cl)cc1NC(=O)N1CCC(C(=O)Nc2cc(C)on2)CC1 | i
CCc1ccc(N2CC(C)Cn3c2nc2c3c(=O)n(CC(=O)OC)c(=O)n2C)cc1 (centres undefined) | i
O=C(CCCc1ccccc1)N1CCC(Oc2ccc(C(F)(F)F)cn2)CC1 | i
Cc1cccc(C)c1N1CCN(S(=O)(=O)c2ccc(I)cc2)CC1 | i
COCCCn1c(C(=O)Nc2cccc(C)c2C)cc2c(=O)n(C)c(=O)n(C)c21 | i
COc1cc(NC(=O)Nc2cc(-c3ccccc3)nn2-c2nc(C)cc(=O)[nH]2)cc(OC)c1 | i
Brc1ccc(CN2CC(c3nc(-c4ncccn4)no3)C2)s1 | i
CCOc1ccc(S(=O)(=O)Nc2ccc3c(c2)CCCN3S(=O)(=O)CC)cc1C | i
Cc1cccc(NC(=O)CSc2nnc(N3CCN(c4ccccc4)CC3)s2)c1C | i
COc1ccc(-c2c(C)oc3cc(OCCN4CCN(CCO)CC4)ccc3c2=O)cc1 | i
CCn1nc(C(C)C)cc1C(=O)O | i
COc1cccc(-c2noc(Cn3cnc4c(nnn4Cc4ccc(C)cc4)c3=O)n2)c1 | i
Cc1ccc(-c2noc(-c3cccn(CC(=O)Nc4cccc(Br)c4)c3=O)n2)cc1 | i
COc1ccc(-c2ccc(=O)n(C(C)C(=O)NCC(F)(F)F)n2)cc1 (centres undefined) | i
COc1ccc(CCNC(=O)CNS(=O)(=O)c2ccc(F)c(Cl)c2)cc1OC | i
Cc1cc(C(=O)NCC#CCOc2ccc3c(c2)OCO3)no1 | i

The list goes on; it opens with the two that closed the last part.
SMILES | GIRK2 act
COc1ccc(CCNC(=O)CNS(=O)(=O)c2ccc(F)c(Cl)c2)cc1OC | i
Cc1cc(C(=O)NCC#CCOc2ccc3c(c2)OCO3)no1 | i
c1ccc2c(c1)ccc1nnc(SCc3ccc4c(c3)OCCO4)n12 | i
O=C(c1ccc(-c2ccccc2)cc1)N1CCN(c2ncnc3c2nnn3-c2cccc(F)c2)CC1 | i
O=C(Oc1ccc2c(c1)O/C(=C\c1ccncc1)C2=O)c1ccc([N+](=O)[O-])cc1 | i
CNC(=O)CSc1nnc(N2CCN(C(=O)Cc3ccc([N+](=O)[O-])cc3)CC2)s1 | i
Cc1cnc(C(=O)N2CCN(c3ccccn3)CC2)cn1 | i
O=C(Cc1cccc2ccccc12)NCC1CCN(C(=O)c2ccncc2)CC1 | i
COc1ccccc1-c1coc2c3c(ccc2c1=O)OCN(Cc1cccs1)C3 | i
O=C(CSc1nnc(CCc2nc3ccccc3[nH]2)o1)Nc1nccs1 | i
COc1ccc(NC(=O)NCCCn2ncccc2=O)cc1OC | i
CNC(=O)Cc1csc(NC(=O)Cc2noc3ccccc23)n1 | i
O=C(/C=C/c1ccc2c(c1)OCO2)N1CCN(C2=NN=C(c3cccs3)CS2)CC1 | i
O=C(c1ccco1)N1CCN(CC(F)(F)F)CC1 | i
O=C(c1ccc(=O)[nH]n1)N1CCN(c2ccc(-c3noc(C4CC4)n3)cn2)CC1 | i
Cc1noc(-c2ccnc(SCC(=O)Nc3cccc(Cl)c3C)c2)n1 | i
COc1cc(OC)c(OC)cc1/C=C1\Oc2c(ccc3c2CN(Cc2ccco2)CO3)C1=O | i
CC(C)CNC(=O)Cn1cnc2c1c(=O)[nH]c(=O)n2C | i
Cc1nc2ccccc2n(CC(=O)Nc2ccc(Br)cc2)c1=O | i
CNC(=O)CSc1nnc(N2CCN(C(=O)c3ccc(OC)cc3OC)CC2)s1 | i
c1ccc(-c2nc(CN3CC(c4nc(-c5ncccn5)no4)C3)cs2)cc1 | i
O=C(NCCNS(=O)(=O)c1cccc(Cl)c1)c1ccc(NC(=O)C2CCCC2)cc1 | i
O=C(NCc1ccc2c(c1)OCO2)c1ccc(Cl)c(S(=O)(=O)N2CCCCCC2)c1 | i
CCn1c(SCC(=O)Nc2cc(OC)cc(OC)c2)nc2c3cc(OC)ccc3n(C)c2c1=O | i
COc1cccc(C2c3c(oc4ccc(C)cc4c3=O)C(=O)N2c2nc(C)cs2)c1 (centres undefined) | i
O=C(NCc1cccs1)C(=O)NCC(O)c1ccoc1 (centres undefined) | i
CCC(C)NC(=O)CCn1c(=O)c2ccccc2n2c(SCC(=O)NCc3ccccc3)nnc12 (centres undefined) | i

Reprinted from the entries so far for reference:
SMILES | GIRK2 act
CNC(=O)Cc1csc(NC(=O)Cc2noc3ccccc23)n1 | i
O=C(/C=C/c1ccc2c(c1)OCO2)N1CCN(C2=NN=C(c3cccs3)CS2)CC1 | i
O=C(c1ccco1)N1CCN(CC(F)(F)F)CC1 | i
O=C(c1ccc(=O)[nH]n1)N1CCN(c2ccc(-c3noc(C4CC4)n3)cn2)CC1 | i
Cc1noc(-c2ccnc(SCC(=O)Nc3cccc(Cl)c3C)c2)n1 | i
COc1cc(OC)c(OC)cc1/C=C1\Oc2c(ccc3c2CN(Cc2ccco2)CO3)C1=O | i
CC(C)CNC(=O)Cn1cnc2c1c(=O)[nH]c(=O)n2C | i
Cc1nc2ccccc2n(CC(=O)Nc2ccc(Br)cc2)c1=O | i
CNC(=O)CSc1nnc(N2CCN(C(=O)c3ccc(OC)cc3OC)CC2)s1 | i
c1ccc(-c2nc(CN3CC(c4nc(-c5ncccn5)no4)C3)cs2)cc1 | i
O=C(NCCNS(=O)(=O)c1cccc(Cl)c1)c1ccc(NC(=O)C2CCCC2)cc1 | i
O=C(NCc1ccc2c(c1)OCO2)c1ccc(Cl)c(S(=O)(=O)N2CCCCCC2)c1 | i
CCn1c(SCC(=O)Nc2cc(OC)cc(OC)c2)nc2c3cc(OC)ccc3n(C)c2c1=O | i
COc1cccc(C2c3c(oc4ccc(C)cc4c3=O)C(=O)N2c2nc(C)cs2)c1 (centres undefined) | i
O=C(NCc1cccs1)C(=O)NCC(O)c1ccoc1 (centres undefined) | i

Going on with the list:
SMILES | GIRK2 act
CCOC(=O)c1ccc(NC(=O)Cn2cnc3c(-c4ccc(C)cc4)csc3c2=O)cc1 | i
COC(=O)COc1cc(-c2ccc(F)cc2)nc2ccc([N+](=O)[O-])cc12 | i
Cc1ccc(S(=O)(=O)c2nc(NCC3CCCO3)sc2Cl)cc1 (centres undefined) | i
COc1cc(NC(=O)C2CCCN(c3ccc(-c4ccc(Cl)cc4)nn3)C2)ncn1 (centres undefined) | i
COC(=O)Cn1c(=O)c2c(nc3n2CC(C)CN3c2ccccc2OC)n(C)c1=O (centres undefined) | i
O=C(CSc1nccn2nc(-c3ccc(Cl)cc3)cc12)Nc1ccccc1 | i
N#C/C(C(=O)N1CCOCC1)=C1/SC(Cc2ccccc2Cl)C(=O)N1c1ccccc1 (centres undefined) | i
Cn1ccnc1SCC1CCN(C(=O)c2ccc3c(c2)OCO3)CC1 | i
COc1cc(Cl)c(C)cc1NC(=O)Cn1c(-c2ccccc2)nc(C)c(Cl)c1=O | i
Cc1cccc(-c2csc3c(=O)[nH]c(N4CCC(C(=O)NCC5CCCCC5)CC4)nc23)c1 | i
CCOC(=O)N1CCN(c2ncc3c(=O)n(Cc4ccccc4F)c(=O)[nH]c3n2)CC1 | i
Cc1cc(OCC(=O)Nc2cccc(C#N)c2)nc(N2CCc3ccccc3C2)n1 | i
Cn1nnn(-c2ccc(NC(=O)NCCCc3ccccc3)cc2)c1=O | i
Cc1ccc(C(=O)NC2CCN(C(=O)c3cn(-c4ccccc4C)nn3)CC2)cc1C | i
COc1ccc2c(=O)c(Oc3ccc(C(=O)NCC4CCCO4)cc3)c(C)oc2c1 (centres undefined) | i
Cn1c(CN2CCN(CC(=O)NCC3CCCO3)CC2)nc2ccccc21 (centres undefined) | i
O=C1/C(=C/c2ccccc2)Oc2c1ccc1c2CN(Cc2ccco2)CO1 | i
CCCCC[C@H](O)/C=C/[C@@H]1[C@@H](C/C=C\CCCC(=O)NC(CO)CO)[C@@H](O)C[C@H]1O | i
O=C(NCCc1cccs1)c1c(O)c2sccc2[nH]c1=O | i
Cc1ccc(C(=O)Nc2sc3c(c2-c2nc4ccccc4s2)CCCC3)cc1 | i
NC(=O)C1CCN(C(=O)c2ccc(S(=O)(=O)NCCc3ccccc3)o2)CC1 | i
Cc1ccc(-c2ccc(OCC(=O)NCCC(=O)O)cc2)cc1 | i
COc1ccc(-n2c(SCc3nc(-c4cccc(C)c4)no3)nc3[nH]ncc3c2=O)cc1Cl | i
Cc1cc(NC(=O)C2CC(=O)N(c3ccccc3)C2)sn1 (centres undefined) | i
Cc1nc(C)c(-c2ccc(=O)n(CCNS(=O)(=O)c3c(C)noc3C)n2)s1 | i

Next section.
SMILES | GIRK2 act
Cc1cc(C(O)CCNC(=O)c2ccc(S(=O)(=O)N(C)C)cc2)c(C)o1 (centres undefined) | i
COc1ccc(OCc2ccc(-c3nc(C#N)c(N4CCCCC4)o3)o2)cc1 | i
O=C(NCc1ccc(C(O)c2cccs2)s1)C(=O)Nc1cccnc1 (centres undefined) | i
COCCNC(=O)c1nnn(-c2ccc(NC(=O)C3CC=CCC3)cc2)n1 (centres undefined) | i
COc1cccc(NC(=O)N2CCC(CSCc3ccco3)CC2)c1OC | i
CCCCC(C)(C)[C@H](O)/C=C/[C@H]1[C@H](O)CC(=O)[C@@H]1C/C=C\CCCC(=O)O | i
COc1ccc(SCC2CCN(C(=O)c3ccco3)CC2)cc1 | i
CCOCC(=O)N1CCOCC1CO (centres undefined) | i
COCCn1c(-n2nc(C)cc2C)nc2c1c(=O)[nH]c(=O)n2C | i
CCC(C)NC(=O)C1CCN(c2nc3c(-c4ccccc4F)csc3c(=O)[nH]2)CC1 (centres undefined) | i
CC1C(=O)N2CCCc3cc(NC(=O)C(=O)NCC4CCN(S(C)(=O)=O)CC4)cc1c32 (centres undefined) | i
Cc1ccc2nc(SCC(=O)N3CCOCC3)[nH]c2c1 | i
C#C[C@]1(O)CC[C@H]2[C@@H]3CCc4cc(OC)ccc4[C@H]3CC[C@@]21C | i
CCOc1ccc(NS(=O)(=O)N2CCCCC2)cc1 | i
COc1cccc(Nc2nn3c(=O)c4cc(OC)c(OC)cc4nc3s2)c1 | i
Cc1ccc2nc(C3CN(C(=O)C4CC(=O)N(c5ccc(F)cc5)C4)C3)[nH]c2c1 (centres undefined) | i
N#CCCSc1nc(-c2ccco2)cc(C(F)(F)F)c1C#N | i
COC(=O)[C@H](O)[C@H]1C(C)(C)[C@H](OC(C)=O)[C@@]2(O)C(=O)[C@]1(C)C1CC[C@]3(C)C(CC(=O)O[C@H]3c3ccoc3)[C@]13O[C@@H]32 (some centres undefined) | i
COc1ccc(-c2c(C)oc3cc(OC(=O)C(C)(C)C)ccc3c2=O)cc1 | i
Cc1cn2c3c(=O)[nH]c(=O)n(C)c3nc2n1CCN1CCN(Cc2cccc(Cl)c2)CC1 | i
COc1cn(C)c(C(=O)Nc2ccccc2C(C)C)cc1=O | i

Assay outcomes from PubChem BioAssay.
